# Bioassay records from PubChem.
# 2A Renilla: Primary qHTS Assay for Foot and Mouth Disease Virus Antivirals against NCGC Sytravon and CBC Compound Libraries: Renilla Luciferase Signal. HEK cells with a luciferase reporter of 2A StopGo recoding. Potency, µM (doses to about 57.5 µM), inactives show top-dose signal change, negative = less light. 120,000 compounds, 0.32% hits; active means well fitted falling curve with a large enough effect; inconclusive means small, poorly fitted or top-dose-only effect; inactive means no such curve, though single readings can be large or run the other way; note: nearly all actives have a fitted effect of over 55% in size; overnight with compound
# StopGo FLuc: Primary qHTS Assay for Foot and Mouth Disease Virus Antivirals against NCGC Sytravon and CBC Compound Libraries: Firefly Luciferase Signal | HEK cells with a luciferase reporter of 2A StopGo recoding | Potency, µM (doses to about 57.5 µM), for the others: at the highest dose signal change, negative = less light | 120,000 compounds, 0.23% hits | AID 1745856, 2022; active = well fitted falling curve with a large enough effect; inconclusive = small, poorly fitted or top-dose-only effect; inactive = no such curve, though single readings can be large or run the other way; note: nearly all actives have a fitted effect of over 60% in size; overnight with compound
# The depositor's hits bear a star; ? = inconclusive; [ ] = remark or other dose. % is set by controls: 0 for no effect and ±100 for the full control effect; potency is the fitted concentration of half-maximal effect. Only part of the results is shown (hit frequency here may not be typical).
structure	2A Renilla	StopGo FLuc
CC1CCC(NC(=O)c2ccc3c(c2)N(Cc2ccccc2F)C(=O)c2ccccc2S3(=O)=O)CC1 (stereo not given)	20%	67%[activator]
CS(=O)(=O)N(CC(=O)Nc1ccc(S(=O)(=O)N2CCCCCC2)cc1)c1ccc(F)cc1	187%[activator]	-10%
C/C(=N/NC(N)=S)C1CC2CCC1C2 (stereo not given)	-2%	4%
CC(C)Cn1cc(NC(=O)N2CCN(c3ccc(F)cc3)CC2)c2ccccc2c1=O	-10%	-17%
O=C(CCCCn1c(=O)c2ccccc2n(CC(=O)Nc2ccc(F)cc2F)c1=O)NCCc1ccccc1	-16%	-24%
CCCCCCCCCNC(=O)CC#N	1%	-1%
Cc1ccccc1/C=C/C(=O)c1cccc([N+](=O)[O-])c1	-1%	49%[activator]
Cc1cccc(C(=O)Nc2ccc(-c3nc4ccccc4o3)c(O)c2)c1	-8%	31%[activator]
Cc1ccccc1Cn1c(SCc2ccc(C(=O)N3CCCCC3)cc2)nc2ccncc21	?	-2%
COc1ccc(CNC(=O)c2cc3ccccc3oc2=O)cc1OC	18%	39%[activator]
COc1ccc(C2CC(=O)Nc3ccsc32)cc1OCC(N)=O (stereo not given)	-11%	-18%
CCN(CC)CCNC(=O)c1ccc(CSc2nc3ccncc3n2Cc2cccc(F)c2)cc1	?	?
S=C1Nc2cccc3cccc(c23)N1	6%	5%
COc1cc(Cl)c(C)cc1NC(=O)CSCc1nc(-c2ccc(OC)c(OC)c2)no1	-3%	-22%
Cc1nnc(SCc2c(C(=O)NCC(C)C)oc3ccccc23)s1	19%	13%
O=C(NCCN1CCOCC1)c1nn2c(C(F)(F)F)cc(-c3cccs3)nc2c1Cl	7%	1%
COc1cc(NC(=O)Cn2c(=O)n(Cc3ccco3)c(=O)c3sc4ccccc4c32)cc(OC)c1	-6%	-3%
COc1ccc(COCC(O)Cn2nc(-c3ccccc3)c3ccccc3c2=O)cc1 (stereo not given)	-4%	-6%
CC(=O)N1CCc2c(sc3c2c(=O)n(-c2ccccc2)c(=O)n3CC(=O)c2ccc(Cl)cc2)C1	-6%	-20%
CC1=C(C(=O)Nc2cc(Cl)ccc2C)C(c2cccs2)n2ncnc2N1 (stereo not given)	-5%	-8%
COc1ccc(NC(=O)CN2C(=O)C(=O)c3ccccc32)c(OC)c1	4%	23%
COC(=O)C1C(=O)CC(C)(O)C(C(=O)OC)C1c1ccc(F)cc1 (stereo not given)	0%	2%
O=C(COc1ncnc2ccccc12)Nc1ccc2ccccc2c1	-2%	4%
CCCCCCc1cc2cc(/C(C)=N/O)c(=O)oc2cc1O	-5%	-4%
COc1ccc(OCC2c3cc(OC)c(OC)cc3CCN2C(=O)c2ccc(F)cc2)cc1 (stereo not given)	17%	-18%
CCC(NC(=O)CCc1ncc(-c2ccccc2F)o1)c1ccc(OC)cc1 (stereo not given)	7%	20%
Cc1ccc(-c2nnc(Nc3ccccc3)c3ccccc23)cc1S(=O)(=O)N1CCOCC1	29%	-15%
COC(=O)c1ccc(NC(=O)C2=C(c3ccccc3)S(=O)(=O)CCO2)cc1	?	-12%
CCc1cccc(CC)c1NC(=O)CSc1nc(CN(C)C)nc2ccccc12	0%	-11%
C=Cc1ccc(CSc2nc(-c3ccc(Cl)cc3)nc3c2Cc2c(CO)cnc(C)c2O3)cc1	-8%	-18%
CC(=O)c1ccc(NC(=O)c2cc(C3CC3)nc3c2c(C)nn3-c2ccc(C)cc2)cc1	-2%	-8%
Cc1ccc(NCC(=O)Nc2cc(Cl)ccc2-n2cncn2)c(Cl)c1	2%	-15%
Cc1ccc(C(C)C)c(OCCn2cc(C(=O)c3ccco3)c3ccccc32)c1	-15%	4%
Cc1cccc2[nH]cc(C3=CCN(C(=O)CCc4ccccc4)CC3)c12	-9%	-1%
COCCn1c(SC(C)C(=O)OC)nc2c1c(=O)[nH]c(=O)n2C (stereo not given)	0%	16%
Cc1c(C(N)=O)cc([N+](=O)[O-])cc1[N+](=O)[O-]	-5%	17%

# The last 6 compounds of the part before open the next one:
structure	2A Renilla	StopGo FLuc
CC(=O)c1ccc(NC(=O)c2cc(C3CC3)nc3c2c(C)nn3-c2ccc(C)cc2)cc1	-2%	-8%
Cc1ccc(NCC(=O)Nc2cc(Cl)ccc2-n2cncn2)c(Cl)c1	2%	-15%
Cc1ccc(C(C)C)c(OCCn2cc(C(=O)c3ccco3)c3ccccc32)c1	-15%	4%
Cc1cccc2[nH]cc(C3=CCN(C(=O)CCc4ccccc4)CC3)c12	-9%	-1%
COCCn1c(SC(C)C(=O)OC)nc2c1c(=O)[nH]c(=O)n2C (stereo not given)	0%	16%
Cc1c(C(N)=O)cc([N+](=O)[O-])cc1[N+](=O)[O-]	-5%	17%
Cc1cccc(CSc2ncc(CO)n2Cc2ccc(F)cc2)c1	-28%	?
COc1ccc(N2CCN(C3C(=O)c4ccccc4N3C(C)=O)CC2)cc1 (stereo not given)	-3%	-12%
C(#CCN1CCOCC1)COC(c1ccccc1)c1ccccc1	22%	26%
Cc1nc2ccccc2cc1C(=O)NCc1ccccc1	?	-20%
COc1ccc2ccc(OCC(=O)NC3CCCC3)cc2c1	-9%	17%
Cc1ccc(OCc2nc(C#N)c(NCc3ccncc3)o2)c(C)c1	18%	20%
Cc1ccc(NC(=O)CSc2nc(-c3ccco3)nc3cc(=O)[nH]n23)cc1C	-25%	-7%
COc1ccc(-n2c(SCC(=O)NCc3ccccc3)nc3n[nH]c(C)c3c2=N)cc1	21%	-18%
CCOc1ccccc1N(CC)C(=O)c1cc2c(=O)[nH]c3ccc(C)cc3c2s1	-4%	-1%
O=C1CSc2ccc(C(=O)NC3CCCCC3)cc2N1	19%	0%
O=C(NC1CCSc2c(F)cccc21)c1cc2c(s1)CCCC2 (stereo not given)	9%	4%
CCC(Sc1nc2ncccc2[nH]1)C(=O)Nc1cccc(OC)c1 (stereo not given)	12%	-2%
CN(C)C(=O)Nc1ccc(Cl)c(Cl)c1	43%[activator]	53%[activator]
CC(C)N(C(=O)COC(=O)c1c[nH]c2ccccc12)C(C)C	-6%	-3%
Cc1ccc(/C=C(\C#N)c2nc(-c3cc4c(ccc5ccccc54)oc3=O)cs2)cc1	-17%	-6%
O=C(Nc1cccc(S(=O)(=O)N2CCCC2)c1)c1ccccc1Oc1ccccc1	0%	3%
COc1cccc(-n2c(=O)c3c(C)c(C(=O)N(C)C)sc3n(CC(=O)Nc3ccc(C)cc3Cl)c2=O)c1	-8%	-18%
CCc1cccc(NC(=O)C23CC4CC(CC(C4)C2)C3)c1	8%	5%
CC(Sc1nnc(C2CC2)n1-c1ccccc1)c1nnc(-c2ccc(F)cc2)o1 (stereo not given)	12%	50%[activator]
CCN(CC)C(C)CN1c2ccccc2Sc2ccccc21 (stereo not given)	-1%	17%[11.5 µM]
N#Cc1ccccc1COC(=O)c1ccc2ccccc2c1	1%	0%
COc1ccccc1-c1nc2c(c(SCc3ccc(F)cc3Cl)n1)Cc1c(CO)cnc(C)c1O2	-7%	-13%
COc1ccc(C(=O)N2CCN(c3oc(-c4cccs4)nc3C#N)CC2)cc1OC	-6%	0%
O=c1c2ccc(F)cc2ncn1Cc1coc(-c2cccs2)n1	-2%	6%
Cc1ccc(NC(=O)C(Cc2ccccc2)NS(=O)(=O)c2ccc3c(c2)oc(=O)n3C)cc1C (stereo not given)	-14%	-20%
CCc1ccc2occ(CC(=O)Nc3ccc(C)c(C)c3)c2c1	?	25µM*
Cc1ccc(-n2ncc3c(NC4CCCCC4)ncnc32)c(C)c1	?	0%
Cc1csc2nc(COC(=O)c3ccc(NC(=O)COc4ccccc4F)cc3)cc(=O)n12	-4%	?
CCn1nc(C(=O)Nc2ccccc2Oc2ccccc2)c2ccccc2c1=O	?	?
CCCCCCOc1ccc(C(=O)OCC(=O)c2ccc(Cl)cc2)cc1	0%	9%
Cc1ccc(S(=O)(=O)CCC(=O)OCC(=O)NC2CCC(C)CC2)cc1 (stereo not given)	-13%	0%
CCc1ccc(OCC(O)Cn2cnc3ccc(Cl)cc3c2=O)cc1 (stereo not given)	-4%	8%
CN(Cc1ccco1)S(=O)(=O)c1nnc(NC(=O)c2ccccc2)s1	39%[activator]	71%[activator]
COc1ccccc1CCNC(=O)CCn1c(=O)c2cccn2c2ccc(F)cc21	24%	-9%
COc1cccc(CN2c3ccccc3-c3nc(SCC(=O)Nc4cccc(C)c4)ncc3S2(=O)=O)c1	19%	-1%
Cn1c(=O)c2sccc2n2c(CCC(=O)NCc3ccc(Cl)cc3)nnc12	-3%	-7%

# Copied from the list:
# In 2A Renilla, `CN(C)C(=O)Nc1ccc(Cl)c(Cl)c1` is listed with 43%[activator]
# In StopGo FLuc, `COc1ccc(C2CC(=O)Nc3ccsc32)cc1OCC(N)=O` (stereo not given) is listed with -18%
# In 2A Renilla, `CCc1cccc(CC)c1NC(=O)CSc1nc(CN(C)C)nc2ccccc12` is listed with 0%
# In 2A Renilla, `COc1ccc(CNC(=O)c2cc3ccccc3oc2=O)cc1OC` is listed with 18%
# In 2A Renilla, `Cc1ccc(NC(=O)C(Cc2ccccc2)NS(=O)(=O)c2ccc3c(c2)oc(=O)n3C)cc1C` (stereo not given) is listed with -14%

# Following part
structure	2A Renilla	StopGo FLuc
Cc1cccc(-c2nc3ccccc3s2)c1	5%	0%
N#C/C(=C/c1ccccc1)c1ccc(C(F)(F)F)cn1	35%[activator]	83%[activator]
CC(=O)c1ccccc1NC(=O)c1ccccc1Cc1ccccc1	-5%[1.06 µM]	83%[activator]
CCOC(=O)c1c(NC(C)=O)c2c3c(sc2n1Cc1nc(-c2ccc(Cl)cc2)oc1C)CCCC3	0%	-5%
Cc1nnc(CSc2nnc(-c3ccc(Br)cc3)n2CCc2ccccc2)o1	151%[activator]	12%
Cc1ccc(CNC(=O)CCc2c(C)nn(-c3ccc(N4CCCCC4)nn3)c2C)cc1	17%	21%
COc1ccc(-c2cc(OC(=O)c3cccc(C)c3)c3c(C)oc(C)c3c(=O)c2)cc1	-4%	-27%
O=C(NCCc1ccc(Cl)cc1)c1ccc(CSCc2cccc(Cl)c2)o1	13%	-4%
CC(NC(=O)C1CCOCC1)C(=O)O (stereo not given)	3%	9%
CSc1ccc(C2C3=C(CCCC3=O)OC3=C2C(=O)CCC3)cc1	74%[activator]	8%
COc1ccc2[nH]cc(C(C(=O)O)N3CCN(Cc4cccnc4)CC3)c2c1 (stereo not given)	-7%	-3%
Cc1cc(S(=O)(=O)NCCO)ccc1F	22%	-2%
COc1ccc(Cc2nccc3cc(OC)c(OC)cc23)cc1OC	?	?
CCCCNC(=S)N/N=C/C=C(/C)CCC=C(C)C	17%	-9%
COc1ccc(-c2noc(-c3ccc(N4CCOCC4)c([N+](=O)[O-])c3)n2)cc1	-16%	1%
COc1ccc(CC(=O)Nc2ccc(O)c(-c3nc4ccccc4o3)c2)cc1	5%	18%
CCC(C(=O)NCCc1ccc(OC)c(OC)c1)n1nc(C)c2sc3ccccc3c2c1=O (stereo not given)	-14%	-19%
COc1cc(C(=S)N2CCOCC2)ccc1O	-9%	-9%[11.5 µM]
Cc1cc2oc(C(=O)NCC(c3ccco3)N3CCCCC3)cc(=O)c2cc1C (stereo not given)	-15%	-17%
Cc1ccc(Sc2cc(C(=O)NC3CCC(C)CC3)c3ccccc3n2)cc1 (stereo not given)	19%	0%
CSCCC(NS(=O)(=O)c1ccc2c(c1)oc(=O)n2C)C(=O)Nc1cc(C)cc(C)c1 (stereo not given)	-9%	41%[activator]
CCC(C)OC(=O)/C(C#N)=C\c1ccc(-c2ccccc2Cl)o1 (stereo not given)	-14%	-20%
COc1ccccc1N1CCN(C(=O)COCC(=O)NCc2ccc(F)cc2)CC1	-6%	-6%
Cc1cc(N2CCCCCC2)n2nc(Cc3ccc(Cl)cc3)nc2n1	8%	-4%
Cn1c(=O)c2c(ncn2CCC(=O)Nc2ccc(Cl)cc2)n(C)c1=O	7%	15%
CCN(CC)c1ccc(NC(=O)C(NS(=O)(=O)c2cccs2)C(C)C)c(C)c1 (stereo not given)	4%	-19%
Cc1cccnc1-n1c(C)c(C)c2c1ncn1nc(CSc3nc4ccccc4o3)nc21	?	5%
CCCCc1c(C)c2ccc(OC)c(/C(C)=N/O)c2oc1=O	?	-5%
Cc1ccc(CN2CC(C(=O)Nc3ccc(C)cn3)CC2=O)cc1 (stereo not given)	29%	44%[activator]
CCN(c1ccccc1)c1nnc(NC(=O)Nc2ccc(Br)c(C)c2)s1	-9%	-8%
CCN(CC)S(=O)(=O)c1ccc([N+](=O)[O-])cc1	93%[activator]	64%[activator]
COc1ccccc1CNC(=O)C1CCN(c2ncnc3c2nc2n3CCCCC2)CC1	9%	-2%
O=C(Nc1nnc(S(=O)(=O)N2CCCc3ccccc32)s1)c1ccccc1Cl	-2%	16%
CSc1ncc(C(=O)NCc2cccc(C)c2)c(-c2ccccc2)n1	15%	5%
C=CCOc1cccc(NC(=O)c2ccccc2Br)c1	1%	51%[activator]
CCOc1ccccc1NS(=O)(=O)c1c(C(=O)OC)sc2ccccc12	123%[activator]	-7%
COc1cccc(C(c2c(O)cc(C)n(Cc3ccco3)c2=O)N2CCC(C)CC2)c1 (stereo not given)	16%	-20%
COC(=O)C1C(=O)CC(C)(O)C(C(=O)OC)C1c1ccccc1 (stereo not given)	-2%	8%
